# VDR inh = Inhibitors of the vitamin D receptor (VDR): qHTS; actives 0.93% (n = 400,000); Vitamin D3 receptor (Homo sapiens), P11473; AID 504847, 2011; VDR-SRC2-3 peptide fluorescence polarization, 2 h; Potency, µM, for the others: max response, negative = inhibition, hits mostly inhibitors; active = well fitted inhibition curve with a large enough effect; inconclusive = small, poorly fitted or top-dose-only effect, or another doubt; inactive = no such curve, though single readings can be large or run the other way; also: series mostly up to about 120 µM
# Target sequence (P11473 whole entry, looked up): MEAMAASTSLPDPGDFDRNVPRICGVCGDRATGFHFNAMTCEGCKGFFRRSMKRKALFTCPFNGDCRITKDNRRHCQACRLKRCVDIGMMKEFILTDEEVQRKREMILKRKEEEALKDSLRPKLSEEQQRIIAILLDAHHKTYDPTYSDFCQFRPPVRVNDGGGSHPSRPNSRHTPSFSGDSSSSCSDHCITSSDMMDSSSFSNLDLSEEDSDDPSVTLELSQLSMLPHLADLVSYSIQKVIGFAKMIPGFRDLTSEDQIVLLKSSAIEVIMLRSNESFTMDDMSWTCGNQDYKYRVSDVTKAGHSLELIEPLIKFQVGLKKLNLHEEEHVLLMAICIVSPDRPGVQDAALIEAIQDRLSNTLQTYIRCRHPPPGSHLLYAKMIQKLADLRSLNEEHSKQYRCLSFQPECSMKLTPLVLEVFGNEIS
#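 Two reagent solutions held at 4 deg C in the dark were dispensed, compounds pinned at 23 nl, and the mixture incubated 2 h at room temperature. Read-out: fluorescence polarization of VDR–SRC2-3 peptide binding.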
# Starred values were filed as active, the others as inactive; ? = inconclusive; [ ] = remark or other dose. % is scaled to controls: 0 for no effect and ±100 for the full control effect; potency is read from the fitted curve at half-maximal effect. Only part of the results is shown; the hit share may differ from the screen's.
mol | VDR inh
COc1ccc(-c2nc3cnc(N(C)C)nc3n(Cc3cccs3)c2=O)cc1 | 0%
COc1ccc(-c2cc(C(F)(F)F)n3nc(C(=O)NCCCN4CCOCC4)cc3n2)cc1 | 9%
COc1cc(OC)cc(C(=O)Nc2cc3c(cc2N2CCCCC2)n(C)c(=O)n3C)c1 | 5%
Cc1c(Cl)cc(C(C)C)c(O)c1CN1CCOCC1 | 13%
CCc1cc2c(=O)[nH]c(N3CCOCC3)nc2s1 | 5%
Oc1cn2c(n1)Nc1ccc(Cl)c(Cl)c1C2 | 6%
COc1ccc(Cl)c(NC(=O)Nc2c(C)n(-c3ccccc3)c(=O)n2C)c1 | -4%
CSC(=S)N(C)C1CCS(=O)(=O)C1 (stereo unspecified) | -11%
CC(C)(CCl)C(=O)Nc1ccc(C(F)(F)F)cc1 | -2%
COc1ccc(C(CNC(=O)C(C)Oc2ccc(Br)cc2)N2CCOCC2)cc1 (stereo unspecified) | -20%
O=C(Nc1nccc(-c2cccs2)n1)c1ccccc1Cl | -14%
Cc1noc(C)c1C(=O)OCC(=O)N(C)C1(C#N)CCCCC1 | -11%
COc1ccc(CSC2=NCCN2)cc1Cl | 18%
O=C(c1cccnc1)N1N=C2CCCCCC2C1(O)C(F)(F)F (stereo unspecified) | -1%
CCN1CCN(c2oc(/C=C/c3ccc(OC)c(OC)c3)nc2C#N)CC1 | 5%
Cc1cc(C(=O)N2CCCc3ccccc32)ccc1[N+](=O)[O-] | -8%
Cc1cccc(NC(=O)c2cnn(C)c2)c1C | -6%
COCCN(C(=O)/C=C/c1cccc([N+](=O)[O-])c1)c1c(N)n(Cc2ccccc2)c(=O)[nH]c1=O | 44%[activator]
CCc1ccc(OCC(=O)NNC(=O)c2cc(S(=O)(=O)N3CCOCC3)ccc2N2CCCC2)cc1 | 1%
O=C(NC1CCCC1)C(c1cccnc1)N(Cc1ccccc1F)C(=O)c1csnn1 (stereo unspecified) | 7%
CSc1ccc(S(=O)(=O)N(CC(=O)NN=C2CCN(C)CC2)c2ccc(C)cc2)cc1 | 3%
O=C(Nc1nc(-c2cc3ccccc3oc2=O)cs1)c1ccc(Br)o1 | 8%
C=CCNC(=S)N/N=C/c1ccc(OCc2ccccc2Cl)cc1 | -2%
COc1ccc(/C=C(\NC(=O)c2ccccc2)C(=O)NCc2ccco2)cc1 | -29%
COc1cc(SC#N)ccc1N=Cc1c(C)[nH]n(-c2ccc(Cl)cc2)c1=O | -21%
Cc1nn(Cc2cccc(C(=O)N3CCCC(C)C3)c2)c(C)c1[N+](=O)[O-] (stereo unspecified) | 8%
CCCc1nnc(NC(=O)CCC(=O)N2CCN(Cc3ccc(F)cc3)CC2)s1 | 4%
CCc1ccccc1NC(=O)CN1CCCN(Cc2cc(C)ccc2C)S1(=O)=O | 7%
O=C(CSc1cn(Cc2ccccc2)c2ccccc12)Nc1nccs1 | -14%
CCc1ccc2oc(-c3cc(NC(=O)c4cccs4)ccc3Cl)nc2c1 | -11%

# Exported field by field: part of the list above.
COc1cc(OC)cc(C(=O)Nc2cc3c(cc2N2CCCCC2)n(C)c(=O)n3C)c1
  VDR inh: 5%

Cc1c(Cl)cc(C(C)C)c(O)c1CN1CCOCC1
  VDR inh: 13%

CCc1cc2c(=O)[nH]c(N3CCOCC3)nc2s1
  VDR inh: 5%

# Next part.
mol | VDR inh
CCn1c(C)c(C2=CCN(S(=O)(=O)c3ccccc3)CC2)c2ccccc21 | -10%
CCC(Cc1ccccc1)NS(=O)(=O)c1ccc2c(c1)NC(=O)C(C)S2 (stereo unspecified) | -8%
O=C(NCCO)C(=O)Nc1cc2c3c(c1)CCN3C(=O)CC2 | 6%
COc1ccccc1CNCc1cc(=O)oc2c(C)c(C)ccc12 | 22%
COc1ccc(Cl)cc1NC(=O)N1CC(=O)Nc2sc3c(c2C1c1ccccc1)CCCC3 (stereo unspecified) | 0%
CCOC(=O)c1sc(NC(=O)C2CC=CCC2C(=O)O)nc1C (stereo unspecified) | 13%
CSc1nc2ncc3c(n2n1)CC1c2ccccc2CCN1C3=O (stereo unspecified) | 10%
Cc1c2c(=O)n(-c3nc4ccccc4s3)nc-2cc(O)n1Cc1ccccc1 | -7%
O=C(Nc1ccc(N2CCCC2)c(Cl)c1)c1ccc([N+](=O)[O-])o1 | 4%
Cc1nnc(SCC(=O)N/N=C/c2cn(-c3ccccc3)nc2-c2ccccc2)n1-c1ccccc1 | 1%
Cc1cccc(-c2onc3ccc(C(=O)/C=C/N(C)C)cc23)c1 | -25%
NC(=S)Cc1nc(-c2ccc(Cl)cc2)cs1 | -19%
O=C(N/N=C/c1cccnc1)c1ccc(NC(=O)c2ccc(F)cc2)cc1 | -2%
Cc1nn(-c2ccccc2)c(Cl)c1/C=N/NC(=O)c1ccco1 | 5%
Cc1cccc(NC(=O)CSc2nc3ccc(N4C(=O)c5ccccc5C4=O)cc3s2)c1C | -9%
O=C(NS(=O)(=O)N1CCOCC1)C1=C(N2CCCC2)COC1=O | -8%
Cc1ccc2c(C)c(C(=O)N(Cc3ccc(F)cc3)C3CCS(=O)(=O)C3)oc2c1 (stereo unspecified) | -5%
COCCN1Cc2cccc(C(=O)Nc3ccc4c(c3)OCCO4)c2C1=O | -4%
COc1ccc(Cl)cc1NC(=O)CN(C)C(=O)c1ccc(OCc2ccccc2)c(OC)c1 | -14%
CC(C)(C)OC(=O)N1Cc2ccccc2C[C@H]1C(=O)NCC(=O)NC1CCCCC1 | -4%
COc1ccc(F)cc1C(=O)C1CCCN(C(=O)c2cccc(N(C)C)c2)C1 (stereo unspecified) | -12%
N#Cc1ccccc1NC(=O)C(=O)NCC(c1ccc2c(c1)OCO2)N1CCOCC1 (stereo unspecified) | 7%
CCOc1ccc(N(CC(=O)NC2CCCCC2)C(=O)CCC(=O)Nc2nc(C)cs2)cc1 | 0%
CC(C)c1ccc(NC(=O)C(c2ccc3c(c2)OCO3)N2CCC3(CC2)OCCO3)cc1 (stereo unspecified) | -9%
Cc1ccccc1-n1nnnc1SCCCC(=O)c1ccc(F)cc1 | -9%
CCOC(=O)c1sc(-c2cccc([N+](=O)[O-])c2)cc1N | 3%
Cc1cccc(-n2c(=O)c3c4c(sc3n3c(=S)[nH]nc23)CCC4)c1 | 20%
COc1ccc(OC)c(CCNC(=O)CCCC(=O)n2ncc3cc(C)ccc32)c1 | -2%
COc1ccc(C(=O)Nc2nnc(S(=O)(=O)N3CCN(c4ccc(F)cc4)CC3)s2)cc1 | 1%
O=C(NCCc1ccccc1)C(=O)NCC(c1ccco1)S(=O)(=O)c1ccccc1 (stereo unspecified) | 10%
CC(=O)N1c2ccc(S(=O)(=O)N3CCC(C(=O)Nc4cccc(C(F)(F)F)c4)CC3)cc2CC1C (stereo unspecified) | -19%
COCC(=O)N(CCc1ccc(OC)c(OC)c1)Cc1nc2ccccc2c(=O)[nH]1 | -14%
Cc1ccc(Cn2c(=O)cc(C(=O)O)c3ccccc32)cc1 | 11%
CCOC(=O)c1ccc(NC(=O)CSc2nnc(Cc3cccs3)n2C)cc1 | 8%
CCCOc1ccc(CN(CCO)CCO)cc1[N+](=O)[O-] | -10%
Cc1cccc(/C=C2\Sc3ccc(C(=O)N4CCC(C(N)=O)CC4)cc3N(C)C2=O)c1 | -3%
CCc1ccc(OCC(=O)NC(=S)Nc2cccc(CO)c2)c(Br)c1 | -8%
O=C(Nc1cccc(S(=O)(=O)NC2=NCCC2)c1)c1ccccc1OC(F)F | -7%
Nc1nnc2c(n1)CCCC2 | 18%
COc1cccc(N2CCN(C(=O)c3cc4c(=O)n(Cc5cccnc5)ccc4nc3C)CC2)c1 | 5%
CCOC(=O)N1CCN(C(=O)c2ccc(NS(=O)(=O)c3ccc(C)cc3)cc2)CC1 | -14%
C=CCc1ccc(OCCCNC2CCCC2)c(OC)c1 | 10%
O=C(COC(=O)Cc1cccs1)Nc1cc(S(=O)(=O)N2CCOCC2)ccc1Cl | -11%
CCOc1ccc(N(CC)S(=O)(=O)N2CCCC(C(=O)NCc3ccc(Cl)cc3)C2)cc1 (stereo unspecified) | 12%
Cc1ccc2c(cnn2C(=O)CCC(=O)NCc2cccc(Cl)c2)c1 | -7%
CC1(C)O[C@H]2[C@@H](O1)[C@@H](C(=O)Nc1cc(F)ccc1F)O[C@@H]1OC(C)(C)O[C@@H]12 | 9%
Cc1ccc(S(=O)(=O)NC(CC(C)C)C(=O)N2CCC(C)CC2)cc1 (stereo unspecified) | 10%
CCCc1ccc(C(=O)O)cc1 | -10%
CCOC(=O)C1CCC(CN(Cc2c(Cl)cccc2Cl)S(=O)(=O)c2ccc(Cl)cc2)CC1 (stereo unspecified) | 1%
c1ccc2c(NC3CCNCC3)nc(-c3ccoc3)nc2c1 | -1%
CC(=O)C1=C(O)C(=O)N(c2ccc(O)cc2)C1c1ccc(F)cc1 (stereo unspecified) | 12%
Cc1cc(C)c2oc(C(=O)Nc3sc4c(c3C(=O)NCc3ccco3)CCC4)cc(=O)c2c1 | 2%
Nc1cc(-c2ccc(Br)cc2)nn1S(=O)(=O)c1cccc2nsnc12 | 15%
Cc1ccccc1C(=O)NC(C)C(c1cccs1)N1CCOCC1 (stereo unspecified) | -22%
COc1cccc(CNC23CC4CC(CC(C4)C2)C3)c1OCc1ccccc1 | -26%
CCN(CC)S(=O)(=O)c1cccc(NC(=O)COC(=O)c2cncc(Br)c2)c1 | 9%
COc1cccc(-n2sc3c(c2=S)-c2cc(OC)ccc2NC3(C)C)c1 | -9%
O=C(C1CCCN(S(=O)(=O)c2cccc3nsnc23)C1)N1CCN(c2ccccc2Cl)CC1 (stereo unspecified) | 6%
CCc1ccc(OCc2nnc(SCC(=O)N3CCOCC3)o2)cc1 | -8%
CNC(=O)C(NC(=O)Nc1ccc(C)cc1)C(C)(C)C (stereo unspecified) | -7%

# Next section:
mol | VDR inh
CC(C)(CNC(=O)c1cc2ccccc2o1)N1CCOCC1 | -11%
Cc1ccc(S(=O)(=O)CCC(=O)Nc2ccccc2N2CCCC2)cc1 | -7%
CCC1CN(C(=O)Nc2cc(Cl)c(OC)cc2OC)c2ccccc2O1 (stereo unspecified) | 6%
Cc1c(C)n(C)c2ccc(C(=O)NCc3cccs3)cc12 | 6%
CCCN(CCC)C(=O)CSc1c2c(nc3ccc(Cl)cc13)CCCC2 | ?
O=C1c2cccnc2C(=O)N1Cc1ccco1 | -10%
COC(=O)c1c(C)c2c(C)cc3ccccn3c-2c1C(=O)OC | 3%
CCc1ccc(S(=O)(=O)c2cn(CC)c3cc(N4CCCCC4)c(F)cc3c2=O)cc1 | 3%
CCOc1cccc2cc(-c3cn4cc(C)ccc4n3)c(=O)oc12 | -3%
CN(CC(=O)Nc1c(Cl)cccc1Cl)C(=O)c1sccc1-c1ccccc1 | -25%
CSc1nnc(-c2sc(-c3ccccc3)nc2C)n1C | 12%
O=C(NCCC1=CCCCC1)C1CCN(S(=O)(=O)N2CCCC2)CC1 | -6%
COc1cc(C(C)=O)ccc1OCCCOc1cccc2cccnc12 | 6%
OCC1OC(n2cnc3c(SCc4ccccc4)ncnc32)C(O)C1O (stereo unspecified) | -5%
CC(C)[C@H](NC(=O)OCc1ccccc1)C(=O)OCC(=O)N1CCCCC1 | -7%
CCOC(=O)N1CCN(c2ncnc3c2[nH]c2ccc(F)cc23)CC1 | 0%
COc1ccccc1/C=N/NC(=O)c1cccc2ccccc12 | 79µM*
NC(=O)C1CCCN1S(=O)(=O)c1ccc2ccccc2c1 (stereo unspecified) | 13%
CCOC(=O)N1CCN(C(=O)CSc2nc(=O)n3ccccc3n2)CC1 | 7%
Cc1csc2nc(CSc3nc4ccccc4o3)cn12 | -7%
CCOc1ccc(/C(=N\O)C(C)NO)cc1 (stereo unspecified) | -7%
Cc1ccc(NC(=O)Cn2c(=O)nc(-c3ccccc3F)c3cc(Cl)ccc32)c(Br)c1 | -9%
O=c1c2[nH]c3ccccc3c2ncn1CCCn1ccnc1 | 3%
O=c1cc(-c2ccc(O)cc2)oc2c(C3OCC(O)C(O)C3O)c(O)c(C3OC(CO)C(O)C(O)C3O)c(O)c12 (stereo unspecified) | -7%
COc1cc(/C=C2\SC(=S)N(NC(=O)c3cccc(O)c3)C2=O)ccc1O | 3%
CCOc1ccc(NC(=O)C(=O)NCCCn2ccnc2)cc1 | 18%
O=S(=O)(Nc1ccc(N2CCOCC2)cc1)c1c(F)cc(F)cc1Br | -14%
COc1ccc(NC(C)C(=O)Nc2ccc(C(C)(C)C)cc2)cc1Cl (stereo unspecified) | 7%
COc1ccc(OCC(=O)Nc2ccc(NC(=O)c3ccccc3Cl)c(OC)c2)cc1 | 11%
O=C(COC(=O)Cc1cccc(C(F)(F)F)c1)NC1CC1 | 9%
CCOc1ccc2c(c1)c(=O)c(C(=O)c1ccc3c(c1)OCO3)cn2Cc1cccc(F)c1 | 12%
CN1C(=O)C(CC(=O)Nc2ccc(F)cc2)N(NC(=O)c2cccc(F)c2)C1=S (stereo unspecified) | -5%
Cc1ccc(OCC(=O)Nc2nonc2-c2ccc(Br)cc2)cc1C | 12%
CCOC(=O)c1cnc(=O)[nH]c1C | 7%
COc1ccccc1CNC(=O)CN1C(=O)NC(C)(c2ccc(C)cc2)C1=O (stereo unspecified) | 8%
Cc1ccc(NC(=O)CSc2ccc(-c3cccnc3)nn2)c(C)c1 | -2%

# Source: PubChem
